VACV mCherry inh = vaccinia inhibition (mCherry reporter); Vaccinia virus mCherry reporter infection, fluorescence; about a quarter of the inactives have no number; Potency, µM (series often up to 36.5 µM), inactives show at the top dose activity change, negative = inhibition, usual class: inhibitors; 0.63% of 310,000 active; active = well fitted inhibition curve with a large enough effect; inconclusive = small, poorly fitted or top-dose-only effect; inactive = no such curve, though single readings can be large or run the other way; tested in A549 cells; note: nearly all actives have a fitted effect of over 35% in size; inactives centre near -10
Vaccinia Venus = inhibitors of vaccinia virus (Venus reporter) | Vaccinia virus Venus reporter expression, fluorescence | Potency, µM (titrated, usually from 36.5 µM), inactives show at the highest dose activity change, negative = inhibition, usual class: inhibitors | 0.46% of 330,000 active | AID 720580; active means well fitted inhibition curve with a large enough effect; inconclusive means small, poorly fitted or top-dose-only effect; inactive means no such curve, though single readings can be large or run the other way; tested in A549 cells; note: nearly all actives have a fitted effect of over 30% in size; inactives centre near -10
* hit, by the source's call; i = inactive; u = inconclusive; x = not tested or not shown; & = joins results of further samples; [ ] = another dose, or the depositor's remark. % is set by controls: 0 for no effect and ±100 for the full control effect; potency is the fitted concentration of half-maximal effect.

SMILES	VACV mCherry inh	Vaccinia Venus
Nc1cccc(Oc2ccc3c(c2)C(=O)N(CCO)C3=O)c1	i	-3%
CC1(C(=O)Nc2ccc3c(c2)OCO3)CCN1C(=O)C1(c2ccc(Cl)cc2)CC1 (centres undefined)	4%	-4%
Cc1cc(C)cc(N(CCC#N)C(=O)COC(=O)C2CCN(S(=O)(=O)c3ccc(C)c(C)c3)CC2)c1	-13%	-9%
COc1ccc(CCn2c(C3CCCCC3)nc3c(c(=O)c4ccccc4n3C)c2=O)cc1OC	-4%	-25%
O=C(CSc1ccsc1[N+](=O)[O-])N1CCN(c2ccc(Cl)cc2)CC1	-9%	-21%
COc1ccccc1OCC(O)Cn1nc(C)cc1C (centres undefined)	-12%	-10%
Cc1ccc(Nc2nnc(SC(C)C(=O)NCC3CCCO3)s2)cc1C (centres undefined)	-4%	-12%
O=C(NNC(=O)C1CC1c1ccccc1)c1cccc([N+](=O)[O-])c1 (centres undefined)	i	-5%
COc1ccccc1CNC(=O)Nc1nc(C(N)Cc2ccc(Cl)cc2)cs1 (centres undefined)	u	u
COC(=O)[C@H]1C[C@@]2(O)CN(S(=O)(=O)c3ccc(C)cc3)C[C@@]2(OC(=O)NC2CC2)C[C@H]1C(=O)OC	-14%	-16%
Cn1cc(/C=N/NC(=O)c2cccc([N+](=O)[O-])c2)c2ccccc21	-11%	-15%
CCCOc1ccc(Nc2cc(C)nc(C)n2)cc1	-10%	-6%
CCCCn1c(N)c(N(CC)C(=O)c2cccc(S(=O)(=O)N3CCN(C)CC3)c2)c(=O)[nH]c1=O	-9%	-3%
Cc1cc(C)nc(SCC(=O)Nc2ncc(Cc3cccc(Cl)c3Cl)s2)n1	-5%	-5%
Cc1cc(C)c(C)c(S(=O)(=O)NCCN2CCOCC2)c1C	-6%	-5%
Oc1ccc(-c2c(C3=CCCCC3)sc3ccccc23)cc1	-24%	-12%
Cn1ccc(C(=O)OCC(=O)Nc2cccc3ccccc23)n1	-13%	-8%
COc1ccc(NC(=O)CSc2nnc(-c3cccs3)n2N)c(OC)c1	-1%	-17%
COc1ccc(-c2csc(C(O)c3ccc(OC)cc3)n2)cc1 (centres undefined)	-24%	-19%
Cc1ccc(C(=O)Nc2sc(C(=O)N(C)C)c(C)c2C#N)cc1	2%	5%

Given with each value named: entries from further up.
structure: Cc1cc(C)nc(SCC(=O)Nc2ncc(Cc3cccc(Cl)c3Cl)s2)n1
  VACV mCherry inh: -5%	Vaccinia Venus: -5%

structure: COc1ccccc1CNC(=O)Nc1nc(C(N)Cc2ccc(Cl)cc2)cs1 (centres undefined)
  VACV mCherry inh: u	Vaccinia Venus: u

New compounds follow.
SMILES	VACV mCherry inh	Vaccinia Venus
O=C1CCC(=O)N1CN(C(=O)c1ccco1)c1ccc(Cl)c(Cl)c1	-9%	-11%
O=C(COC(=O)/C=C/c1cccc(Cl)c1)Nc1ccc(N2CCOCC2)cc1	i	-12%
O=C(Nc1cccnc1)c1ccc(S(=O)(=O)c2ccccc2)cc1	i	-15%
CCCC[N+]12CCC(CC1)C(C(O)(c1ccccc1)c1ccccc1)C2 (centres undefined)	i	-2%
COc1ccc(-c2cc(C(F)(F)F)nc(SCCC(=O)Nc3cc(C)on3)n2)cc1	x	-24%
N#CCCn1ncn(-c2ccccc2)c1=S	x	-15%
O=C(NCc1ccccc1)/C(=C\c1cccc([N+](=O)[O-])c1)NC(=O)c1ccco1	-5%	-7%
CN(Cc1ccc(F)cc1)C(=O)c1cccc(OCc2ccccc2)c1	-12%	-1%
CC(C)(C)c1ccc(S(=O)(=O)Nc2ccc(C(=O)N3CCCC3)cc2)cc1	i	-11%
COc1ccc2oc(=O)c(-c3csc(Nc4ccc(O)cc4)n3)cc2c1	u	u
COc1ccc(/C(C)=N/Nc2nc(C)cc(-c3ccccc3)n2)cc1	u	-29%
Cc1ccc(S(=O)(=O)N2CCC(=O)N(C(COCc3ccccc3)Cc3ccccc3)CC2)cc1 (centres undefined)	-22%	-29%
CCN(CC)S(=O)(=O)c1ccc2c(c1)N(CC(=O)Nc1ccc(Cl)cc1)C(=O)C1CCCN21 (centres undefined)	-3%	0%
CCN(c1ccc(OC)cc1)S(=O)(=O)c1ccc2[nH]c3c(c2c1)CCCCC3	u	u
Cc1cc(C(=O)NN=C2CCCCC2)c2ccccc2n1	-14%	-21%
CCc1ccccc1NC(=O)Cc1c(C(=O)O)[nH]c2ccc(Cl)cc12	-3%	-6%
O=[N+]([O-])c1cccc(/C([O-])=C(/C(=S)Nc2cccc3ccccc23)[n+]2ccccc2)c1	-17%	-3%
O=C(Nc1ccc(N2CCCCC2)cc1)c1ccc(F)cc1	-13%	-5%
COc1ccccc1CNC(=O)CN1C(=O)NC2(CCC(C)CC2)C1=O (centres undefined)	-1%	0%
COc1ccc(-c2cc(C(=O)Nc3cccnc3Cl)no2)cc1OC	-23%	-2%&-19%
CCOc1ccc(C(=O)NCC(C)C)cc1	-10%	-16%
Cc1cccc(N2CCN(C(=S)NCCc3ccccc3)CC2)c1C	-13%	-7%
CCOc1ccc(-c2cc3nc(C4CCN(C(=O)OC(C)(C)C)CC4)c(C(=O)Nc4ccc(C)cc4Cl)cn3n2)cc1	-12%	10%
COC(=O)[C@@]1(Cc2ccc(F)cc2)[C@H]2c3cc(C(=O)N(C)C)n(Cc4ccc(C)o4)c3C[C@H]2CN1C(=O)c1ccccc1	-10%	-1%
CCOC(=O)CCSc1nc2c(c(C(F)(F)F)c1C#N)CCC2	-12%	-10%
CN(Cc1ccon1)Cc1cn(Cc2ccccc2)nc1-c1ccc2c(c1)OCO2	-1%	-14%
O=C(CSc1nc2ccccc2s1)Nc1cc(S(=O)(=O)N2CCOCC2)ccc1Cl	-24%	-7%
CC1(C)Cc2nc3sc4c(SCC(=O)NCc5ccco5)ncnc4c3cc2CO1	x	u
CC(Cc1ccccc1)NC(=O)/C=C/C(=O)O (centres undefined)	i	-9%
O=C1NCCCCC1NS(=O)(=O)c1cccc2ccccc12 (centres undefined)	i	-13%
CCN(CC)C(=O)C1=C(C)N(Cc2ccc(C(C)(C)C)cc2)C(=O)C(CC(=O)NC2CCCCC2)C1 (centres undefined)	-10%	-21%
CN(CC(=O)N1CCc2ccccc2C1)c1ccccc1	i	-12%
Cc1cccc(OCC(=O)N/N=C2/SCC(=O)N2Cc2ccco2)c1	7%	-3%
N#C/C(=C/c1ccc(C(=O)O)cc1)C(=O)Nc1ccccc1	i	-5%
COc1ccc(NC(=O)C2C3CC/C=C\CCC32)cc1 (centres undefined)	i[7.34 µM]	-4%[7.34 µM]
C=CCN(c1ccc(C(=O)Nc2cc(C)cc(C)c2)cc1)S(C)(=O)=O	i	-10%
CCN(CC)C(=O)c1cc([N+](=O)[O-])cc2c1-c1ccc([N+](=O)[O-])cc1C2=C(C#N)C#N	-4%	-11%
COc1ccc(N(Cc2cccs2)C(=O)c2ccc(OC)c(Cl)c2)cc1	-15%	-13%
CCOC(=O)[C@@H]1[C@H]2COc3ccccc3[C@H]2N2C(=O)N(c3ccc(Br)cc3)C(=O)[C@]12C	i	-8%
CCc1ccc(NC2Nc3cc(C)nn3S2)cc1 (centres undefined)	-14%	-6%

5 entries from above in another layout:
| Structure | VACV mCherry inh | Vaccinia Venus |
| --- | --- | --- |
| COc1ccccc1CNC(=O)Nc1nc(C(N)Cc2ccc(Cl)cc2)cs1 (centres undefined) | u | u |
| COC(=O)[C@H]1C[C@@]2(O)CN(S(=O)(=O)c3ccc(C)cc3)C[C@@]2(OC(=O)NC2CC2)C[C@H]1C(=O)OC | -14% | -16% |
| Cn1cc(/C=N/NC(=O)c2cccc([N+](=O)[O-])c2)c2ccccc21 | -11% | -15% |
| CCCOc1ccc(Nc2cc(C)nc(C)n2)cc1 | -10% | -6% |
| CCCCn1c(N)c(N(CC)C(=O)c2cccc(S(=O)(=O)N3CCN(C)CC3)c2)c(=O)[nH]c1=O | -9% | -3% |

New compounds follow:
SMILES	VACV mCherry inh	Vaccinia Venus
O=C1C2C3C=CC(CC3)C2C(=O)N1c1ccc2c(c1)OCO2 (centres undefined)	x	1%
NC(=O)c1c(N)sc2c1CCCC2	-17%	-10%
Cn1c2c(c(=O)n(C)c1=O)CS(=O)c1ccccc1N2 (centres undefined)	35%[activator]	20%
Cc1ccc(OCc2cc(C(=O)N3CCN(c4ccccc4)CC3)no2)cc1C	-10%	-8%
Cc1nc(-c2ccc(C)c(S(=O)(=O)N3CCC(C(=O)Nc4ccc(Cl)cc4)CC3)c2)no1	-22%	u
CC1(C)CC(=O)C=C(c2ccc(I)cc2)C1	u	-23%
COCCCNS(=O)(=O)c1ccc(S(=O)(=O)N2CCCC2)cc1	-11%	-1%
CC(=O)NC1=C(N(C)C2CCS(=O)(=O)C2)C(=O)c2ccccc2C1=O (centres undefined)	-10%	-1%
O=C(NCCCCc1ccccc1)C1CC(c2ccc(C(F)(F)F)cc2)=NO1 (centres undefined)	-28%	-1%
CN(C=O)c1ccc(CSc2ccccc2)cc1	-16%	-2%
COc1ccc(N2CC(C(=O)N3CCN(C)CC3)CC2=O)cc1 (centres undefined)	1%	14%
O=C(CO)N/N=C/c1cccc(Cl)c1Cl	i	-16%
Cc1ccc(C(=O)NCC(=O)N2CCCN(C)CC2)cc1C	-11%	-7%
COc1ccc2oc(=O)cc(-c3cc4ccccc4o3)c2c1	-15%	-18%
C/C(CC(=O)Nc1ccc(Cl)c(Cl)c1)=N\NC(=O)C(=O)N1CCCCC1	i	-15%
O=C(Nc1nc(-c2ccccn2)cs1)c1ccco1	2.5µM*	u
S=c1[nH]nc(-c2ccco2)n1-c1ccc(Br)cc1	-13%	-7%
Nc1nc(-c2ccc3c(c2)CCCC3)c(CC(=O)O)s1	-5%	-9%
COc1cc2[nH]c3c(=O)n(CCN(C(C)C)C(C)C)cnc3c2cc1OC	-20%	-15%
CCC(Sc1nc(C)cc(=O)[nH]1)C(=O)Nc1nnc(C)s1 (centres undefined)	x	-25%

Compound profiles (already shown). Order of screens: VACV mCherry inh, Vaccinia Venus
O=C1NCCCCC1NS(=O)(=O)c1cccc2ccccc12 (centres undefined) is listed with i, -13%
CCOc1ccc(C(=O)NCC(C)C)cc1 is listed with -10%, -16%

(list continues)
SMILES	VACV mCherry inh	Vaccinia Venus
COc1ccccc1-c1nc(SCC(=O)c2ccccc2)n[nH]1	0%	-2%
COc1cc(C(=O)NC(=S)N(C)Cc2ccccc2)cc(OC)c1OC	u	u
COc1ccc(NC(=O)CN(C)C(=O)CSCc2c(C)noc2C)cc1	-7%	-25%
CC(C)(C)OC(=O)N1CCC(CC2CC(c3ccncc3)=NO2)(C(=O)O)CC1 (centres undefined)	-5%	-5%
O=C(c1ccco1)N1CCN(CCCCOc2ccc(F)cc2)CC1	-6%	-20%
Oc1ccc(CNc2ccccc2F)c2cccnc12	10µM*	10µM*
Cc1ccc(C)c(C(=O)OCC(=O)Nc2ccc(N3CCOCC3)cc2)c1	-10%	-18%
Nc1cc(Cl)ccc1Oc1ccc(Cl)cc1	-22%	-20%
Cc1ccc(-c2nn(CCC(N)=O)c(=O)c3ccccc23)cc1	-15%&-11%	-20%&-9%
C/C(=N\NC(=O)c1ccn(C)n1)c1cccc(NC(=O)c2ccc(C)s2)c1	-28%	-20%
Cc1ccccc1CCNC(=O)c1cc2cc(S(=O)(=O)N3CCCCC3)ccc2n1C	-29%	-25%
CC(C)(C)c1nc2ccccc2c2nnc(SCC(=O)Nc3nc4ccccc4s3)n12	-21%	-23%
CCCCNC(=S)NCc1ccc2[nH]c(C)cc2c1	i	-2%
COC(=O)C1=C(N)c2ccccc2C1(C#N)c1ccccc1 (centres undefined)	-21%	-29%
CCNC(=O)CN1c2cccc3cccc(c23)S1(=O)=O	i	u
COc1ccc(NC(=O)c2ccc(COCC(F)(F)C(F)F)cc2)cc1	u	-21%
COc1ccc(OCc2n[nH]c(=S)n2N)cc1	i	-6%
CC1CCN(S(=O)(=O)c2nnc(NC(=O)c3ccccc3Br)s2)CC1	15%	-5%
COc1cccc(-c2cc(N3CCN(C(=O)c4ccoc4)CC3)n3nc(-c4cccc(Cl)c4)cc3n2)c1	-26%	u
CCO/N=C1\C(=O)N(c2ccccc2)c2ccccc21	-28%	-24%
O=C(Nc1nnc(SCc2ccccc2)s1)c1cc2c(s1)CCCC2	x	-8%
COc1cc(O)c(C(CC(=O)N2CCCC2)c2ccc3c(c2)OCO3)c(OC)c1 (centres undefined)	i	-14%
Cc1cc(Cl)ccc1OCC(=O)NCC(c1cccs1)N1CCOCC1 (centres undefined)	-13%	-25%
CCN(C(=O)CSc1nnc2ccccn12)c1c(N)n(Cc2ccccc2)c(=O)[nH]c1=O	-7%	0%
O=[N+]([O-])c1ccc(N2CCCCCC2)c(S(=O)(=O)N2CCCCC2)c1	-13%	-18%
Cc1c(Br)c([N+](=O)[O-])nn1CCCC(=O)Nc1sc2c(c1C(N)=O)CCC(C)C2 (centres undefined)	-25%	-4%
CCOc1ccccc1OCC(=O)O	x	-18%
O=C(O)c1ccc(CN2C[C@@H](CO)O[C@@H](n3cnc4c(NCc5ccc(F)cc5)ncnc43)C2)cc1	4%	-2%
O=S(=O)(/N=C(/NS(=O)(=O)c1ccccc1)c1ccccc1)c1ccccc1	i	-13%
COc1ccc(F)c(CN2CCC3(CCC(CNC(=O)c4ccn(C)n4)O3)CC2)c1 (centres undefined)	-7%	-6%
COc1ccc(-c2cc(C(=O)N3CCN(c4cccc(C)c4C)CC3)c3ccccc3n2)cc1OC	-15%	-19%
Cc1ccc(C(=O)COC(=O)CCC(=O)Nc2ccc(Oc3cc(C)ccc3C(C)C)cc2)cc1	-18%	-11%
CCOC(=O)c1cnn2c(C(F)F)cc(C3CC3)nc12	x	-12%

Bioassay records as filed in PubChem.
